Compound activity from PubChem.
Sa growth 42C = S. aureus growth inhibition; S. aureus RN4220 growth, OD600, 20 h, 42 °C; stronger effect = lower value; relative growth, % (concentration not given with the values); actives 0.53% (n = 170,000); AID 720641;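 active = growth at 42 °C up to 50% and 20 or more points under that at 30 °C, or under 10% at both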;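 also: 300 nL library stock went into each well; scaled to the means of positive and negative controls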
GIV Gai3 FP = GIV-Galpha-i interaction inhibition; P08753; Galpha-i3/FITC-GIV peptide fluorescence polarization, 90 min; stronger effect = lower value; scaled: aluminum fluoride 0%, vehicle 100%; percent of control (FP), % (test concentration not listed); actives 0.42% (n = 210,000);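 active = replicate mean at 85% of control or lower, very high polarization wells dropped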;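 also: wells of about 15 µL received 100 nL stock; the first replicate is given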
Target sequence (P08753 whole entry, looked up): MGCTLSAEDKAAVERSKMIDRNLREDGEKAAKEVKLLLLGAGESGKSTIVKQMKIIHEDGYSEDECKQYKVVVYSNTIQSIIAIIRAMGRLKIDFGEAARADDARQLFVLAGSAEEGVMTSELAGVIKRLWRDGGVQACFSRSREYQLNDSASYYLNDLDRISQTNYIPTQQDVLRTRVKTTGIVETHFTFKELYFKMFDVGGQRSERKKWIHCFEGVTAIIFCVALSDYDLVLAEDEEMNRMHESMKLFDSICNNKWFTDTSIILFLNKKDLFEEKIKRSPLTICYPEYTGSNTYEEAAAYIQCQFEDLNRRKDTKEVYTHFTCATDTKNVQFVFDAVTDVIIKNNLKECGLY
HCMV UL50-53 inh = disrupts HCMV UL50-UL53 complex binding. AID 1918969. inhibition, % (no concentration beside the values). actives 0.15% (n = 190,000). HTRF UL50-UL53 interaction, normalized percent inhibition;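 active = both replicates at 50% or more, plus weaker picks with an unusually low signal ratio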;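 also: stock transfer was 100 nL into about 20 µL; 0% = negative control wells and 100% = wells with untagged competitor protein; inactives centre near -12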
Sa growth 42C second temp = recorded beside Sa growth 42C, whose call it bears; relative growth, %; measured here: growth at 30 °C;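 optical density after 20 h as mean of two plates; 100% = untreated growth and lower means inhibition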
The depositor's hits bear a star; / = not tested or not shown.

Start of the listing, in advance, 2 compounds:
SMILES | Sa growth 42C | Sa growth 42C second temp | GIV Gai3 FP | HCMV UL50-53 inh
NC(=O)COC(=O)c1sc2cc(F)ccc2c1Cl | 98 | 98 | / | -77
CC(=O)Nc1c2n(c3ccc(F)cc13)CC(C)(C(=O)NC1CCCC1)N(C1CCC(C)CC1)C2=O (stereo unspecified) | / | / | 101 | -31

The whole of this part, previewed entries included:
SMILES | Sa growth 42C | Sa growth 42C second temp | GIV Gai3 FP | HCMV UL50-53 inh
NC(=O)COC(=O)c1sc2cc(F)ccc2c1Cl | 98 | 98 | / | -77
CC(=O)Nc1c2n(c3ccc(F)cc13)CC(C)(C(=O)NC1CCCC1)N(C1CCC(C)CC1)C2=O (stereo unspecified) | / | / | 101 | -31
O=C(c1cc(-c2ccncc2)n(-c2ccc(F)cc2)n1)N1CCN(c2ccc(Cl)cc2)CC1 | / | / | 101 | -23
CSc1cccc(-n2cc(-c3ccc4c(c3)OCO4)[nH]c2=O)c1 | 104 | 84 | 112 | -4
CCOC(=O)N1CCN(S(=O)(=O)c2ccc(C(=O)Nc3nc4ccc(OCC)cc4s3)cc2)CC1 | / | / | 105 | 12
Cc1ccccc1-c1ccc(N2CCCC(C(=O)NCc3ccc4c(c3)OCO4)C2)nn1 (stereo unspecified) | / | / | 101 | -22
CN(C)S(=O)(=O)c1ccc(C(=O)NCCSc2c(-c3ccccc3)[nH]c3ccccc23)cc1 | 101 | 81 | 110 | -13
CCSc1nc(-c2cccc(Cl)c2)nc2c1Cc1c(CO)cnc(C)c1O2 | 109 | 109 | 107 | /
COc1cc(CNC(=O)c2cnc(SC)nc2-c2ccccc2)cc(OC)c1OC | 127 | 89 | 101 | /
CCNc1oc(COc2ccc(OC)cc2)nc1C#N | 90 | 91 | / | 0
Cc1cccc(NC(=O)c2c(C)oc3ncn(CC(C)C)c(=O)c23)n1 | 80 | 87 | 103 | /
O=C(NCc1ccccc1)C1CCC(C(=O)NCc2ccccc2)N1 (stereo unspecified) | 94 | 95 | 103 | -28
Cc1oc2ccc(O)c(CN3CCN(Cc4ccccc4)CC3)c2c1C(=O)Nc1ccccc1 | 103 | 88 | 103 | 1
Cn1cc(C(=O)Nc2ccc(Cl)cc2)c2[nH]c(=O)n(-c3ccc(Cl)cc3)c(=O)c21 | / | / | 96 | -14
C=CCc1ccccc1OCCCn1c(CN2CCOCC2)nc2ccccc21 | / | / | 99 | 16
O=C(Nc1ccccc1C1CC1)c1cccs1 | 105 | 76 | 100 | 8
NC(=O)c1ccc(NC(=O)CSC2=Nc3ccccc3N=C(c3ccccn3)C2)cc1 | / | / | 103 | -30
CCc1ccc(Nc2nnc(SCC(=O)NC(=O)CN3CCCC3=O)s2)cc1 | 88 | 84 | / | -20
Cc1sc(-c2noc(C3CCC3)n2)cc1S(=O)(=O)N1CCC(C(=O)N2CCOCC2)CC1 | / | / | 107 | -10
COc1ccc(CCNc2ncnc3onc(-c4ccc(Cl)cc4)c23)c(OC)c1 | 96 | 82 | 100 | /
O=C(Nc1ccc(-c2nc3ccccc3s2)cc1)Nc1cc(F)cc2c1OCOC2 | 95 | 78 | 119 | 26
CC(C)(CNCC(O)c1ccccc1)N1CCOCC1 (stereo unspecified) | 93 | 96 | / | -12
CO/N=C(/C(=O)N[C@@H]1C(=O)N2C(C(=O)O)=C(COC(C)=O)CS[C@H]12)c1csc(N)n1 | 1.1* | -0.9* | / | -14
CN(C(=O)c1cc(=O)c2ccccc2o1)C1(c2ccccc2Cl)CCCCC1=O (stereo unspecified) | 102 | 95 | / | -9
CCOC(=O)c1cc(-c2ccccc2)n(CCCC(=O)Nc2ccc(CC)cc2)c1C | 90 | 99 | 105 | /
SMILES | Sa growth 42C | Sa growth 42C second temp | GIV Gai3 FP | HCMV UL50-53 inh
Cc1cc2c(cc1S(=O)(=O)CCC(=O)NCc1ccco1)OCC(=O)N2 | 98 | 92 | 111 | /
Nc1nc(N2CCOCC2)ncc1S(=O)(=O)c1ccc(Cl)cc1 | 106 | 85 | 107 | -40
CNc1nc2c(c(=O)[nH]c(=O)n2C)n1Cc1cccc2ccccc12 | 96 | 75 | 105 | -14
COc1ccccc1Nc1c2c(nc3ccc(NC(=O)c4ccccc4F)cc13)CCCC2 | 82 | 60 | 106 | -39
CCOC(=O)COc1ccc2c(=O)c(-c3ccc4c(c3)OCCO4)c(C(F)(F)F)oc2c1 | / | / | 105 | -13
N#CCC(=O)Nc1ccc2c(c1)OCCO2 | 97 | 89 | / | -1
Cc1[nH]c2ccccc2c1C(=O)C(C)OC(=O)c1ccccc1-n1cnnn1 (stereo unspecified) | 100 | 80 | / | -16
COc1ccc(-c2noc(=O)n2CC(=O)Nc2ccccc2C)cc1 | 77 | 88 | 104 | -3
COc1cccc(NC(=O)c2c(OC)cccc2OC)c1 | 103 | 85 | 104 | -20
Cc1ccc(-c2ccc(OC(=O)c3ccccc3F)cc2)cc1 | 95 | 91 | / | -2
CC1=Nc2cc(C(=O)NCc3ccco3)ccc2Sc2ccc(Cl)cc21 | 118 | 88 | 112 | -2
CCOc1ccccc1CCC(=O)O | 95 | 92 | 108 | -10
Cc1ccc(C)n1-c1nnc(N2CCCC(C(=O)NCc3cccc(Br)c3)C2)s1 (stereo unspecified) | 99 | 80 | 108 | 12
Cc1cc(S(=O)(=O)N2CCCC2)ccc1-n1cnnn1 | 84 | 81 | 104 | 1
O=C(/C=C/c1ccccc1)NCCN1CCOCC1 | 103 | 103 | 98 | -15
COc1ccc(CCNC(=O)C2C3C=CC(C3)C2C(=O)O)cc1OC (stereo unspecified) | 113 | 81 | / | -5
CCOC(=O)c1[nH]c(C)c(CCC(=O)NCc2ccccc2)c1C | 103 | 85 | 103 | /
COc1ccc(-c2nc3ccccc3s2)cc1NC(=O)c1cc(OC)c(OC)c(OC)c1 | 100 | 94 | 98 | -24
CC(C)(C)NC(=O)Cn1c(SCC(=O)c2ccc3c(c2)OCCO3)nc2ccccc21 | 90 | 57 | 98 | -7
COC(=O)c1cc(S(=O)(=O)NCC2CCN(Cc3cc(C)ccc3C)CC2)c[nH]1 | 94 | 92 | 107 | /
O=C(CSc1nccc(=O)[nH]1)C12CC3CC(CC(C3)C1)C2 | 97 | 93 | / | -8
Cc1onc(-c2ccccc2)c1C1=N/C(=C\c2cc(Br)cs2)C(=O)O1 | / | / | 93 | -13
C/C(=N\OC(=O)Nc1ccc(Cl)cc1)c1cc(-c2ccccc2)no1 | 98 | 88 | 101 | -36
CCC(=O)N1CCc2cc(S(=O)(=O)NC(C(=O)NCc3ccco3)C(C)C)ccc21 (stereo unspecified) | 108 | 89 | 109 | -15
Cc1ccccc1C(=O)NC(=S)N1CC(C)OC(C)C1 (stereo unspecified) | 106 | 93 | 100 | -6

Individual results from the list:
Cc1ccc(C)n1-c1nnc(N2CCCC(C(=O)NCc3cccc(Br)c3)C2)s1 (stereo unspecified) @ Sa growth 42C second temp: 80
Cc1[nH]c2ccccc2c1C(=O)C(C)OC(=O)c1ccccc1-n1cnnn1 (stereo unspecified) @ Sa growth 42C second temp: 80
CC1=Nc2cc(C(=O)NCc3ccco3)ccc2Sc2ccc(Cl)cc21 @ GIV Gai3 FP: 112
N#CCC(=O)Nc1ccc2c(c1)OCCO2 @ Sa growth 42C second temp: 89

Some of these compounds in order of the GIV Gai3 FP value, rising:
molecule	Sa growth 42C second temp	GIV Gai3 FP
CCOC(=O)c1[nH]c(C)c(CCC(=O)NCc2ccccc2)c1C	85	103
COc1cccc(NC(=O)c2c(OC)cccc2OC)c1	85	104
Nc1nc(N2CCOCC2)ncc1S(=O)(=O)c1ccc(Cl)cc1	85	107
Cc1ccc(C)n1-c1nnc(N2CCCC(C(=O)NCc3cccc(Br)c3)C2)s1 (stereo unspecified)	80	108

New compounds follow.
SMILES | Sa growth 42C | Sa growth 42C second temp | GIV Gai3 FP | HCMV UL50-53 inh
COc1ccccc1-c1nn(CN(c2ccccc2)c2ccccc2)c(=S)o1 | 111 | 88 | / | -24
O=C(CCN1C(=O)c2ccccc2C1=O)N1CCC(c2ccccc2)C1 (stereo unspecified) | 102 | 86 | 109 | /
COc1cc(C)nc(N(C)S(=O)(=O)c2ccccc2)n1 | 113 | 87 | 103 | -4
O=C1c2ccccc2C(=O)N1CCSc1n[nH]c(-c2ccccc2F)n1 | 67 | 88 | / | -34
O=C(c1ccc2c(c1)CCN2S(=O)(=O)c1ccc(Cl)cc1)N1CCN(c2ccccc2F)CC1 | 114 | 94 | 103 | -28
O=C(NC(=O)N1CCCc2ccccc21)c1ccccc1 | 102 | 98 | 104 | 8
COC(=O)c1ccc(=O)c2nc3/c(=C/O)c(O)cc(=O)c3[nH]c12 | 59 | 65 | 100 | 50*
COc1ccc(Nc2nc3ccccc3n3c(N)nnc23)cc1 | 109 | 89 | 108 | -18
CC(C)c1nnc(SCC(=O)NC(C)(C)C)n1C | 135 | 98 | 103 | -22
O=C(CSc1ncccn1)N1CCCc2ccccc21 | 102 | 102 | 108 | -2
CCc1ccc2oc(-c3ccc(C)c(NC(=O)Cc4ccccc4)c3)nc2c1 | 97 | 95 | 104 | 10
CC(C)(C)n1ncc2c(=O)n(CC(=O)N3CCCC3)cnc21 | 93 | 95 | 103 | 1
CCc1ccc(S(=O)(=O)N2CCc3nc(N4CCCCC4)ncc3C2)cc1 | / | / | 117 | -11
Cc1ccc(C(=O)N(Cc2ccc(N(C)C)cc2)Cc2ccco2)cc1 | 104 | 86 | 103 | -13
CCNC(=O)c1ccc(C)c(-n2c(C)nc3cccnc32)c1 | 146 | 95 | 106 | /
NC(=O)CN1C(=O)C2(SCC(=O)N2c2cccc(F)c2)c2ccccc21 (stereo unspecified) | 91 | 92 | 104 | /
Cc1[nH]nc2c1C(c1ccc(C(C)(C)C)cc1)NC2=O (stereo unspecified) | / | / | 101 | 12
N#Cc1cc2c(nc1SC1CCc3ccccc3C1=O)CCCC2 (stereo unspecified) | 107 | 96 | 103 | -11
CCCCc1ccc(NS(=O)(=O)c2cc3c4c(c2)CC(=O)N4CCC3)cc1 | 90 | 80 | 102 | /
CC1=NNC(=O)/C1=C/c1ccc(-c2ccc(Cl)cc2)o1 | 89 | 80 | 103 | -16
Clc1ccccc1OCCBr | 117 | 88 | / | -21
O=C(CSc1ccc2ccccc2n1)NCCCN1CCCC1=O | 101 | 89 | / | 9
O=C(NC1CCCC1)c1ccc(CSc2nc3ccncc3[nH]2)cc1 | 104 | 82 | 105 | -5
CC(Sc1nnc(C2CCCCC2)n1-c1cccc(Cl)c1)C(=O)O (stereo unspecified) | 110 | 111 | 106 | 22
O=C1c2ccccc2C(=O)N1CN1CCN(Cc2ccc3c(c2)OCO3)CC1 | 114 | 86 | / | -42
SMILES | Sa growth 42C | Sa growth 42C second temp | GIV Gai3 FP | HCMV UL50-53 inh
O=C(Cn1ncc(Cl)c(Cl)c1=O)N1CCOCC1 | 93 | 95 | / | -43
CC(=O)OCc1cnc(C)c2oc(=O)c(C(=O)Nc3cccc(F)c3)cc12 | 105 | 101 | 101 | /
CCn1c(O)c(C=Nc2ccc(OC)cc2)c(=O)n(CC)c1=S | 101 | 92 | / | -2
c1ccc(COc2ccc(CNCc3cccnc3)cc2)cc1 | 93 | 97 | 94 | 6
COC(=O)c1cc(NC2c3ccccc3C(=O)N2Cc2ccco2)cc(C(=O)OC)c1 (stereo unspecified) | 99 | 85 | 105 | -25
CCCCn1c(=O)[nH]c(=O)c2c1nc(COC(=O)C1(Cc3nc4ccccc4s3)CCCC1)n2C | 78 | 93 | / | -11
COc1cc(NC(=O)c2cccc(Br)c2)nc(OC)n1 | 83 | 77 | / | 2
O=C(NCCc1ccccc1)c1ccc(CS(=O)(=O)Cc2ccccc2F)o1 | 131 | 81 | 100 | /
O=C(NCc1cccnc1)c1cccc2sc(N3CCCc4ccccc43)nc12 | 130 | 71 | 107 | /
COc1ccccc1N1CCN(C(=O)CSc2nc3ccccc3nc2Cc2ccc(F)cc2)CC1 | 99 | 89 | 99 | /
Cn1c(=O)n(CCN2CCOCC2)c(=O)c2c1nc1n2CCCN1c1ccc(Cl)cc1 | / | / | 107 | 9
COc1cc(CNc2ccccc2)cc(OC)c1OC | 88 | 89 | / | -10
Cn1c2ccccc2c2c(C(=O)N3CCN(c4ccccc4)CC3)cn(C3CCCCC3)c(=O)c21 | 116 | 91 | 110 | 2
O=C(c1ccc(CSc2nc3ccncc3n2Cc2ccc(F)cc2)cc1)N1CCCC1 | 107 | 80 | 98 | 7
COc1cccc(NC(C)C(=O)Nc2ccc(NC(C)=O)cc2)c1 (stereo unspecified) | 85 | 91 | / | 2
O=C(c1ccc(C#Cc2ccccc2)o1)N1CCCC1 | 103 | 93 | 109 | -10
CC(C)(C)c1cc(Cc2ccc(O)c(O)c2)cc(C(C)(C)C)c1O | 61 | 33 | 105 | -15
CC(=O)Nc1sc(=Nc2ccc(C)c(C)c2)n(C(C)=O)c1-c1ccc2c(c1)OCO2 | 80 | 90 | 103 | -10
CC1(C)CC(N2NC(=O)C(Cc3ccccc3)C2=O)CCS1 (stereo unspecified) | 100 | 87 | / | -3
CCOc1ccc(-n2c(SCC(=O)Nc3cccc(Cl)c3)nc3c(oc4ccccc43)c2=O)cc1 | 94 | 90 | 103 | 0
COc1ccc(-c2nc3ccccc3c(=O)n2NC(=O)c2cc(Br)ccc2Cl)cc1OC | / | / | 97 | -10
CCOC(=O)c1noc2ncn(Cc3cccc(C#N)c3)c(=O)c12 | 111 | 100 | 102 | /
